Screening data from PubChem.
FGF22 binding = shifts melting point of recombinant human FGF22; Q9HCT0; recombinant FGF22 thermal shift, SYPRO orange fluorescence; percent of sucrose octasulfate shift, DMSO zero; calls only at 9.99 µM; hit rate 1.5% among 340,000; AID 651658;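 active = melting point raised past a set limit in the mean and every replicate; three in four hits are not shown here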
Target sequence (Q9HCT0 whole entry, looked up): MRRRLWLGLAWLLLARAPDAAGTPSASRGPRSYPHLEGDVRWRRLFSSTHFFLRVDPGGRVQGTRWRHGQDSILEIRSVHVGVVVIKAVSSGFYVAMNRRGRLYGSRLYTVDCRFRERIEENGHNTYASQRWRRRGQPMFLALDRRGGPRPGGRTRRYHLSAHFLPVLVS
Calls only; i = inactive; + = active, no number. An excerpt, so the mix of outcomes need not match the whole.

FGF22 binding,SMILES
i,C[C@H]1CN([C@@H](C)CO)C(=O)Cc2cc(NS(=O)(=O)c3ccc(F)cc3)ccc2O[C@@H]1CN(C)C(=O)Nc1ccc(C(F)(F)F)cc1
i,Cc1cccc(-c2ccc([C@H]3[C@@H](CO)N4CCCCN(C(=O)NC(C)C)C[C@H]34)cc2)c1
i,CC(C)NC(=O)Nc1ccc2c(c1)CC(=O)N([C@H](C)CO)C[C@@H](C)[C@H](CN(C)Cc1ccncc1)O2
i,C[C@H](O)C#Cc1ccc2c(c1)O[C@@H](CN(C)C)[C@@H](C)CN([C@H](C)CO)S2(=O)=O
i,C[C@H]1CN([C@@H](C)CO)C(=O)Cc2cc(NS(=O)(=O)c3cn(C)cn3)ccc2O[C@@H]1CN(C)Cc1ccc2c(c1)OCO2
i,CO[C@@H]1CN(C)C(=O)c2cc(NC(=O)c3ccccc3)ccc2OC[C@@H](C)N(C(=O)C2CC2)C[C@H]1C
i,COc1cccc(NC(=O)N[C@@H]2CC[C@H](CC(=O)Nc3ccccc3)O[C@@H]2CO)c1
i,COc1ccc(S(=O)(=O)N[C@@H]2CC[C@H](CC(=O)N3CCC(Cc4ccccc4)CC3)O[C@H]2CO)cc1

(cont.)
FGF22 binding,SMILES
i,O=C(C[C@@H]1C[C@@H]2c3cc(NS(=O)(=O)c4ccc(F)cc4)ccc3O[C@@H]2[C@@H](CO)O1)NCc1cccnc1
i,COCC(=O)N1[C@H](C#N)[C@H](c2ccc(C#Cc3ccccc3F)cc2)[C@H]1CO
i,CN1c2ccc(Br)cc2[C@H]2[C@H](CCN2C(=O)Nc2cccc(F)c2)[C@@H]1CO
i,Cc1noc(C)c1NC(=O)Nc1cccc2c1O[C@H](CN(C)Cc1ccc(C(=O)O)cc1)[C@@H](C)CN([C@H](C)CO)C2=O
i,C[C@@H]1CCCCO[C@H](CN(C)CC2CCCCC2)[C@H](C)CN([C@H](C)CO)C(=O)c2cc(NC(=O)NC3CCCCC3)ccc2O1
i,C[C@H](O)C#Cc1ccc([C@H]2[C@@H](CO)N3CCCCN(C(=O)c4cccc(F)c4)C[C@@H]23)cc1
i,Cn1cnc(S(=O)(=O)N2C[C@H](O)COC[C@@H]3O[C@H](CC(=O)NC4Cc5ccccc5C4)CC[C@H]32)c1
i,Cc1noc(C)c1NC(=O)N(C)C[C@H]1Oc2cc(C#CCC(C)C)ccc2S(=O)(=O)N([C@@H](C)CO)C[C@H]1C

(list continues)
FGF22 binding,SMILES
i,COc1cccc(CN2CC3(CCN(C)CC3)c3c(n(C)c4cc(OC)ccc34)[C@H]2CO)c1
i,Cc1ccc(S(=O)(=O)N(C)C[C@@H]2Oc3c(NC(=O)Nc4ccc(C(F)(F)F)cc4)cccc3C(=O)N([C@H](C)CO)C[C@H]2C)cc1
i,CO[C@@H]1CN(C)C(=O)c2cc(NC(=O)Nc3ccccc3)ccc2OC[C@@H](C)N(C(C)=O)C[C@@H]1C
i,O=C(N[C@H]1CC[C@@H](CC(=O)N2CCc3ccccc3C2)O[C@H]1CO)C1CC1
i,CCCC#Cc1ccc([C@H]2[C@H](C#N)N(C(=O)C3CCC3)[C@H]2CO)cc1
i,C[C@@H]1CN([C@@H](C)CO)C(=O)Cc2cc(NC(=O)NC3CCCCC3)ccc2O[C@H]1CN(C)Cc1ccc(Cl)c(Cl)c1
i,COc1ccc(NC(=O)N(C)C[C@@H]2OCc3ccccc3-c3ccccc3C(=O)N([C@@H](C)CO)C[C@@H]2C)c(OC)c1
i,Cc1noc(C)c1S(=O)(=O)Nc1cccc2c1O[C@@H](CN(C)S(=O)(=O)c1cccs1)[C@@H](C)CN([C@H](C)CO)C2=O

Additional results.
FGF22 binding,SMILES
i,Cc1noc(C)c1S(=O)(=O)N1CCCc2nc(-c3ccc(F)cc3)ccc21
i,CN1CCN(C(=O)C2=C[C@H](c3ccccc3)C[C@H](OCCCCO)O2)CC1
i,C[C@H]1CCCCO[C@H](CN(C)Cc2ccc3c(c2)OCO3)[C@@H](C)CN([C@@H](C)CO)C(=O)c2cc(NC(=O)Nc3ccccc3)ccc2O1
i,CO[C@@H]1CN(C)C(=O)c2cc(NC(=O)Nc3c(C)noc3C)ccc2OC[C@H](C)NC[C@H]1C
i,CNC(=O)C[C@@H]1CC[C@H]2[C@@H](COC[C@@H](O)CN2C(=O)c2ccccn2)O1
i,N#C[C@@H]1[C@H](c2ccccc2C2=CCCC2)[C@@H](CO)N1C(=O)CN1CCOCC1
i,Cc1cc(C(=O)Nc2cccc3c2O[C@H](CN(C)C(=O)NC2CCCCC2)[C@@H](C)CN([C@H](C)CO)C3=O)n(C)n1
i,CN1C(=O)c2cc(NC(=O)Nc3cccc(Cl)c3)ccc2OC[C@@H]2O[C@@H](CC(=O)NCCc3ccncc3)CC[C@H]21

More structures
FGF22 binding,SMILES
i,CCCNC(=O)N(C)C[C@@H]1Oc2cc(-c3ccncc3)ccc2S(=O)(=O)N([C@@H](C)CO)C[C@@H]1C
i,C[C@H]1CN([C@@H](C)CO)C(=O)c2cc(NC(=O)Nc3cccc4ccccc34)ccc2O[C@@H]1CN(C)Cc1ccc(C(F)(F)F)cc1
i,C[C@H](CO)N1C[C@H](C)[C@H](CN(C)C(=O)Nc2ccc(C(F)(F)F)cc2)Oc2ccc(NC(=O)NC3CCCCC3)cc2C1=O
i,O=C(NC1CCCC1)N1CC2(C1)[C@H](c1ccccc1)[C@@H](CO)N2CC1CCOCC1
i,C[C@H](CO)N1C[C@H](C)[C@@H](CN(C)Cc2ccc(C(=O)O)cc2)Oc2ccc(NC(=O)Cc3cn(C)c4ccccc34)cc2C1=O
i,COc1cccc(S(=O)(=O)Nc2ccc3c(c2)[C@@H]2C[C@H](CC(=O)O)O[C@@H](CO)[C@@H]2O3)c1
i,O=C(C[C@@H]1CC[C@@H]2[C@H](COC[C@H](O)CN2C(=O)c2ccccc2)O1)N1CCOCC1
i,C[C@@H]1CN([C@@H](C)CO)C(=O)Cc2cc(NC(=O)Nc3cccc4ccccc34)ccc2O[C@@H]1CN(C)S(=O)(=O)c1ccc(F)cc1

A stretch of the results above, as a working copy:
FGF22 binding,SMILES
i,CO[C@@H]1CN(C)C(=O)c2cc(NC(=O)Nc3c(C)noc3C)ccc2OC[C@H](C)NC[C@H]1C
i,CNC(=O)C[C@@H]1CC[C@H]2[C@@H](COC[C@@H](O)CN2C(=O)c2ccccn2)O1
i,N#C[C@@H]1[C@H](c2ccccc2C2=CCCC2)[C@@H](CO)N1C(=O)CN1CCOCC1
i,Cc1cc(C(=O)Nc2cccc3c2O[C@H](CN(C)C(=O)NC2CCCCC2)[C@@H](C)CN([C@H](C)CO)C3=O)n(C)n1
i,CN1C(=O)c2cc(NC(=O)Nc3cccc(Cl)c3)ccc2OC[C@@H]2O[C@@H](CC(=O)NCCc3ccncc3)CC[C@H]21
i,CCCNC(=O)N(C)C[C@@H]1Oc2cc(-c3ccncc3)ccc2S(=O)(=O)N([C@@H](C)CO)C[C@@H]1C
i,C[C@H]1CN([C@@H](C)CO)C(=O)c2cc(NC(=O)Nc3cccc4ccccc34)ccc2O[C@@H]1CN(C)Cc1ccc(C(F)(F)F)cc1
i,C[C@H](CO)N1C[C@H](C)[C@H](CN(C)C(=O)Nc2ccc(C(F)(F)F)cc2)Oc2ccc(NC(=O)NC3CCCCC3)cc2C1=O
i,O=C(NC1CCCC1)N1CC2(C1)[C@H](c1ccccc1)[C@@H](CO)N2CC1CCOCC1
i,C[C@H](CO)N1C[C@H](C)[C@@H](CN(C)Cc2ccc(C(=O)O)cc2)Oc2ccc(NC(=O)Cc3cn(C)c4ccccc34)cc2C1=O

More entries follow:
FGF22 binding,SMILES
i,O=C(N[C@H](Cc1ccccc1)C(=O)NCc1ccc(OC(F)(F)F)cc1)[C@H]1O[C@@H](n2ccc(=O)[nH]c2=O)[C@H](O)[C@@H]1O
i,COc1ccc(-c2ccc(C3[C@@H]4CN(S(=O)(=O)c5ccccc5C)C[C@H]3N4)cc2)cc1 (stereo partly specified)
i,C[C@H](CO)N1C[C@H](C)[C@@H](CN(C)S(=O)(=O)c2cn(C)cn2)OCCCC[C@H](C)Oc2ccc(NC(=O)NC3CCCCC3)cc2C1=O
i,O=C(Nc1ccc(F)cc1)N[C@@H]1CC[C@@H](CCNS(=O)(=O)c2ccccc2F)O[C@H]1CO
i,CCNC(=O)C[C@@H]1C=C[C@H](NC(=O)NC2CCCCC2)[C@H](CO)O1
i,C[C@H](CO)N1C[C@H](C)[C@@H](CN(C)C(=O)NC2CCCCC2)Oc2ccc(N(C)C)cc2CC1=O
i,COC(=O)c1cccc(-n2c(C)cc(O)cc2=O)c1
i,Cc1noc(C)c1S(=O)(=O)Nc1ccc2c(c1)C(=O)N([C@H](C)CO)C[C@@H](C)[C@H](CN(C)C(=O)Nc1ccc(F)cc1)OCCCC[C@H](C)O2

Continued.
FGF22 binding,SMILES
i,CN1C(=O)c2cc(NC(=O)Cc3cccs3)ccc2OC[C@H]2O[C@@H](CC(=O)N[C@@H]3CCN(Cc4ccccc4)C3)CC[C@@H]21
i,C[C@@H]1CN([C@@H](C)CO)C(=O)Cc2cc(NS(=O)(=O)c3ccccc3)ccc2O[C@@H]1CN(C)Cc1ccccc1
i,COc1cccc(C(=O)Nc2ccc3c(c2)C(=O)N(C)C[C@@H](OC)[C@@H](C)CN(C)[C@@H](C)CO3)c1
i,COc1ccc(COCC23N=C4SCc5ccccc5C(=O)N4[C@H](c4ccccc4O2)[C@H]3COC(=O)c2ccccc2)cc1
i,C[C@H]1CN([C@@H](C)CO)C(=O)c2cc(C#CC(C)(C)O)cnc2O[C@H]1CN(C)C(=O)CN(C)C
i,O=C(C[C@H]1C[C@@H]2c3cc(NC(=O)C4CCOCC4)ccc3O[C@@H]2[C@H](CO)O1)NCc1ccccn1
i,O=C(NC1Cc2ccccc2C1)[C@H]1[C@H](CO)[C@H]2Cn3c(cccc3=O)[C@H]2N1C(=O)C1CCC1
+,CC(C)C#Cc1cnc2c(c1)C(=O)N([C@@H](C)CO)C[C@H](C)[C@@H](CN(C)C(=O)c1cnccn1)O2

Other compounds follow.
FGF22 binding,SMILES
i,C[C@H](CO)N1C[C@H](C)[C@@H](CN(C)S(=O)(=O)c2cccs2)Oc2ccc(NC(=O)NC3CCCCC3)cc2CC1=O
i,CCCC#Cc1ccc([C@H]2[C@@H](CO)N3C(=O)CN(C(=O)Nc4cccc(F)c4)C[C@H]23)cc1
i,Cc1ccc(S(=O)(=O)N2CC[C@H]3[C@H](CO)Nc4ccc(C#Cc5ccc(F)cc5)cc4[C@H]32)cc1
i,CN(C)C(=O)c1cccc(-c2ccc3c(c2)[C@H]2[C@H](CCN2C(=O)c2cccnc2)[C@@H](CO)N3)c1
i,CC(C)NC(=O)Nc1ccc2c(c1)CC(=O)N([C@H](C)CO)C[C@@H](C)[C@H](CN(C)Cc1ccc(Cl)c(Cl)c1)O2
i,C[C@@H]1CN([C@H](C)CO)C(=O)c2cccc(N(C)C)c2O[C@@H]1CN(C)C(=O)Nc1ccc(C(F)(F)F)cc1
i,COC(=O)C1=C(C)NC(=S)NC1c1cccc(OC)c1 (stereo unspecified)
i,C[C@@H]1CN([C@H](C)CO)S(=O)(=O)c2ccc(C3=CCCC3)cc2O[C@@H]1CN(C)C(=O)C1CCCCC1

Next section
FGF22 binding,SMILES
i,CO[C@@H]1CN(C)C(=O)c2cc(NC(=O)Nc3c(C)noc3C)ccc2OC[C@H](C)N(CC2CC2)C[C@H]1C
i,C[C@H]1CN([C@@H](C)CO)C(=O)Cc2cc(NC(=O)Cn3cnnn3)ccc2O[C@H]1CN(C)C(=O)Nc1ccccc1
i,CCC(=O)Nc1ccc2c(c1)OC[C@@H](C)N(C(=O)C1CCC1)C[C@H](C)[C@@H](OC)CN(C)C2=O
i,COCC(=O)Nc1ccc2c(c1)OC[C@@H](C)N(Cc1ccccn1)C[C@H](C)[C@H](OC)CN(C)C2=O
i,COCC(=O)Nc1ccc2c(c1)[C@H]1C[C@H](CC(=O)NCCN3CCCCC3)O[C@@H](CO)[C@H]1O2
i,C[C@@H]1CN([C@@H](C)CO)C(=O)Cc2cc(NC(=O)C3CC3)ccc2O[C@H]1CN(C)Cc1ccc(C(=O)O)cc1
i,C[C@H]1CN([C@@H](C)CO)C(=O)Cc2cc(NS(=O)(=O)c3ccc(F)cc3)ccc2O[C@@H]1CN(C)S(=O)(=O)c1ccccc1
i,C[C@@H]1CN([C@H](C)CO)C(=O)c2cc(NC(=O)Cc3ccccc3)ccc2O[C@@H]1CN(C)S(C)(=O)=O

Other entries:
FGF22 binding,SMILES
i,COCC(=O)Nc1ccc2c(c1)OC[C@H](C)N(Cc1ccccc1OC)C[C@H](C)[C@H](OC)CN(C)C2=O
i,CN1C(=O)c2cc(NC(=O)c3cnccn3)ccc2OC[C@H]2O[C@@H](CC(=O)NC3CCC3)CC[C@H]21
i,CS(=O)(=O)N1[C@@H](C#N)[C@@H](c2ccccc2-c2ccc(F)cc2)[C@@H]1CO
i,COc1ccc(S(=O)(=O)N[C@H]2C=C[C@@H](CC(=O)NCc3ccccc3F)O[C@@H]2CO)cc1
i,C[C@@H]1CN([C@H](C)CO)C(=O)Cc2cc(NC(=O)Nc3ccc4c(c3)OCO4)ccc2O[C@H]1CN(C)C(=O)Nc1ccccc1
i,C[C@@H]1CN([C@H](C)CO)S(=O)(=O)c2ccc(-c3ccncc3)cc2O[C@H]1CN(C)Cc1ccccn1
i,CN(C)CCCNC(=O)[C@@H]1[C@@H](CO)[C@@H]2Cn3c(cccc3=O)[C@H]1N2C(=O)Nc1cc(F)ccc1F
i,COc1cccc(S(=O)(=O)N2C[C@H](O)COC[C@H]3O[C@@H](CC(=O)N4CCCCC4)CC[C@@H]32)c1

The results go on:
FGF22 binding,SMILES
i,CCC(=O)N1CC2(C1)[C@H](c1ccc(-c3ccccc3C)cc1)[C@H](CO)N2C(=O)CC
i,COC(=O)[C@H]1[C@H](CO)[C@H]2Cn3c(ccc(-c4ccccc4)c3=O)[C@H]2N1CC1CCCCC1
i,COc1ccc(CN2C[C@@H](O)COC[C@H]3O[C@@H](CC(=O)NCc4ccccc4Cl)CC[C@@H]32)cc1
i,CCCNC(=O)[C@H]1[C@H](CO)[C@H]2Cn3c(ccc(-c4ccc(F)cc4)c3=O)[C@@H]1N2Cc1ccccc1F
i,CCS(=O)(=O)Nc1ccc2c(c1)C(=O)N(C)C[C@H](OC)[C@H](C)CN(Cc1ccccn1)[C@H](C)CO2
i,N#C[C@@H]1[C@H](c2ccccc2C2=CCCC2)[C@@H](CO)N1C(=O)C1CCOCC1
